Source: PubChem BioAssay (National Center for Advancing Translational Sciences (NCATS))
HTT aggregate – inhibitors of mutant huntingtin aggregate formation in PC12 cells. Potency, µM (doses to about 46.1 µM), without a hit: at the highest dose activity change, negative = inhibition, hits mostly inhibitors. PC12 HttQ103-GFP aggregates, Acumen cytometry, 40 h. actives 1.1% (n = 220,000); further: on the % scale 0 is the no-effect control and ±100 the full control effect; nearly all actives have a fitted effect of over 60% in size
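Huntingtin Q103 exon 1–GFP aggregates in induced PC12 cells (100 nM tebufenozide) were quantified by cytometry from lysates, with compounds dosed in titration.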
GAA inhib – inhibitors of human lysosomal alpha-glucosidase. P10253. purified human GAA, 4-MU-alpha-glucoside fluorescence. Potency, µM (series often up to 76.9 µM), without a hit: top-dose activity change, negative = inhibition, hits mostly inhibitors. actives 0.005% (n = 200,000). AID 1466;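 further: plate controls were uninhibited enzyme wells for no effect and no-enzyme background for full effect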
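Read-out is 4-methylumbelliferone fluorescence (Ex 365/Em 440 nm) after NaOH/glycine stop at pH 10. Enzyme 4 nM, substrate 400 uM, pH 5.0 citrate buffer, 20 min room temperature; AC50 from Hill-equation concentration-response.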
aGlu spleen mod – inhibits or activates alpha-glucosidase in human spleen homogenate; Potency, µM (series often up to 79.9 µM), without a hit: top-dose activity change, negative = inhibition, actives largely listed as inhibitors; AID 2112; human spleen homogenate, 4-MU-alpha-glucoside fluorescence; P10253; actives 0.006% (n = 240,000);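 further: 0% = enzyme with vehicle and -100% = no enzyme basal signal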
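Human spleen homogenate (1 ug) incubated with compounds and 1 mM 4-methylumbelliferyl-alpha-D-glucopyranoside in pH 5.0 citrate/phosphate buffer, 37 C, 40 min. Stopped at pH 10; 4-MU fluorescence (Ex 365/Em 440 nm); AC50 by Hill fit.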
GAA glycogen mod – inhibitors or activators of human alpha-glucosidase glycogen cleavage; P10253; recombinant GAA, glycogen substrate, Amplex Red glucose oxidase fluorescence; Potency, µM (highest dose often 76.4 µM), for the others: top-dose activity change, negative = inhibition, hits mostly inhibitors; actives 0.38% (n = 300,000);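 further: 0% = full enzyme reaction and -100% = no-enzyme basal signal; the screen sought inhibitors and activators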
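Natural-substrate format: glycogen cleavage by 4 nM human enzyme, glucose read by Amplex Red coupling (Ex 573, Em 610 nm). Normalized to enzyme and no-enzyme controls.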
IMPase Li inh – IMPase inhibition in cells with lithium potentiation. CHO-M1 cells, IP1 TR-FRET (IP-One), carbachol + lithium. Potency, µM (series often up to 59.4 µM), without a hit: top-dose activity, negative = IMPase inhibition, most hits filed as inhibitors. actives 0.35% (n = 210,000);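 further: IP1 builds up when IMPase is blocked and the TR-FRET signal falls; plate controls were basal vehicle for no effect and high inhibitor control for full effect; nearly all actives have a fitted effect of over 50% in size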
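Readout is a homogeneous TR-FRET IP1 immunoassay (Ex 320, Em 665 and 620), where raised cytosolic IP1 lowers signal. Cells were CHO-M1 treated 30 min at 37C with test compounds plus a little lithium; AC50 values came from Hill-equation fitting.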
HTT cytoprotect – Huntington cell model cytoprotection by ATP luminescence. PC12 HTT-Q103 induced, cytoprotection, ATP luminescence, 40 h. Potency, µM (top dose mostly 56.4 µM), for the others: cytoprotection (ATP increase), actives largely listed as activators. actives 0.14% (n = 230,000). AID 1471;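 further: % of control where 0% means no effect; nearly all actives have a fitted effect of over 45% in size; toxic huntingtin expression switched on by the ecdysone agonist tebufenozide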
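ATP quantification (ATPlite) reports survival of PC12 cells in which tebufenozide, 100 nM final, switches on Htt exon 1 with 103 glutamines linked to GFP; compounds are titrated.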
Active calls of the source: *; ? = inconclusive; nt = no result given; [ ] = another dose, or the depositor's remark. The call rests on the fitted dose curve; in most records, active means well fitted curve in the direction sought with a large enough effect; inconclusive means small, poorly fitted or top-dose-only effect, or another doubt; inactive means no such curve, though single readings can be large; an effect the other way counts as inactive or inconclusive. Potency means the concentration at half of the fitted maximal effect.

canonical_smiles | HTT aggregate | GAA inhib | aGlu spleen mod | GAA glycogen mod | IMPase Li inh | HTT cytoprotect
CCCN1C(=O)/C(=C/c2ccc3c(c2)OCO3)NC1=S | -6% | -7% | 0% | -15% | -4% | -7%
COc1ccc([C@H]2Sc3ccccc3N(CCN(C)C)C(=O)[C@H]2OC(C)=O)cc1 | nt | nt | 0%[29.1 µM] | nt | 0% | -3%[40.3 µM]
CCC1CCCCN1CCCNC(=O)CCCNC(=O)Cn1cnc2sc3c(c2c1=O)CCCC3 (stereo not given) | -5% | -5% | nt | 7% | 31%[activator] | -43%
CCOC(=O)N1CCN(C(=O)NC23CC4CC(CC(C4)C2)C3)CC1 | -5% | -7% | 4% | 3% | 27%[38.3 µM] | 2%
N#Cc1cnn2cc(-c3ncc(C(F)(F)F)cc3Cl)cnc12 | -26% | -6% | -3% | -10% | 35%[activator][38.3 µM] | -4%[10 µM]
Fc1ccc(N/N=C/c2ccncc2)c(F)c1 | -17% | -8% | -3% | ? | -5% | -8%[10 µM]
Fc1ccc(Sc2ccccc2CNC2=NCCN2)cc1 | 3% | 2% | 1% | 11% | 15% | nt
O=C(Nc1ccc2oc(=O)ccc2c1)c1ccco1 | -2% | -8% | 1% | -5% | -32%[38.3 µM] | -30%
CC(C)(C)NC(=O)CSc1nc(O)cc(=O)[nH]1 | -17% | 1% | 6% | 0% | -5% | 16%[10 µM]
COc1ccc(OC)c(C2CC(=O)N3CN(c4ccccc4)CSC3=C2C#N)c1 (stereo not given) | 9% | -32% | 3% | 4% | 10%[38.3 µM] | -23%
O=C1C=C(NNC(=O)c2cccnc2)CC(c2ccco2)C1 (stereo not given) | -8% | -6% | 3% | -8% | 2% | -27%
O=C1N/C(=N\S(=O)(=O)Cc2ccccc2)S/C1=C/c1cccc([N+](=O)[O-])c1 | -7%[9.22 µM] | nt | -1% | -10% | nt | 0%[10 µM]

Exported with values under each structure: eleven of the compounds above.
Below each compound – HTT aggregate | GAA inhib | aGlu spleen mod | GAA glycogen mod | IMPase Li inh | HTT cytoprotect
COc1ccc([C@H]2Sc3ccccc3N(CCN(C)C)C(=O)[C@H]2OC(C)=O)cc1
    nt | nt | 0%[29.1 µM] | nt | 0% | -3%[40.3 µM]
CCC1CCCCN1CCCNC(=O)CCCNC(=O)Cn1cnc2sc3c(c2c1=O)CCCC3 (stereo not given)
    -5% | -5% | nt | 7% | 31%[activator] | -43%
CCOC(=O)N1CCN(C(=O)NC23CC4CC(CC(C4)C2)C3)CC1
    -5% | -7% | 4% | 3% | 27%[38.3 µM] | 2%
N#Cc1cnn2cc(-c3ncc(C(F)(F)F)cc3Cl)cnc12
    -26% | -6% | -3% | -10% | 35%[activator][38.3 µM] | -4%[10 µM]
Fc1ccc(N/N=C/c2ccncc2)c(F)c1
    -17% | -8% | -3% | ? | -5% | -8%[10 µM]
Fc1ccc(Sc2ccccc2CNC2=NCCN2)cc1
    3% | 2% | 1% | 11% | 15% | nt
O=C(Nc1ccc2oc(=O)ccc2c1)c1ccco1
    -2% | -8% | 1% | -5% | -32%[38.3 µM] | -30%
CC(C)(C)NC(=O)CSc1nc(O)cc(=O)[nH]1
    -17% | 1% | 6% | 0% | -5% | 16%[10 µM]
COc1ccc(OC)c(C2CC(=O)N3CN(c4ccccc4)CSC3=C2C#N)c1 (stereo not given)
    9% | -32% | 3% | 4% | 10%[38.3 µM] | -23%
O=C1C=C(NNC(=O)c2cccnc2)CC(c2ccco2)C1 (stereo not given)
    -8% | -6% | 3% | -8% | 2% | -27%
O=C1N/C(=N\S(=O)(=O)Cc2ccccc2)S/C1=C/c1cccc([N+](=O)[O-])c1
    -7%[9.22 µM] | nt | -1% | -10% | nt | 0%[10 µM]

Some values from the entries so far:
Result of `Fc1ccc(Sc2ccccc2CNC2=NCCN2)cc1` in HTT aggregate: 3%
Result of `Fc1ccc(N/N=C/c2ccncc2)c(F)c1` in aGlu spleen mod: -3%

Further records follow.
canonical_smiles | HTT aggregate | GAA inhib | aGlu spleen mod | GAA glycogen mod | IMPase Li inh | HTT cytoprotect
CCOC(=O)c1c(-c2ccccc2)nnn1-c1nc(OCC)nc(N2CCCCC2)n1 | 8% | -9% | 3% | -6% | 16% | 15%[10 µM]
N#CC(c1ccccc1)(c1ncc(C(F)(F)F)cc1Cl)N1CCOCC1 (stereo not given) | -13% | -9% | -7% | -33% | 9%[38.3 µM] | 12%
CCCCOC(=O)/C=C/c1ccc(OC(=O)OC)c(OC(=O)OC)c1 | -10% | 7% | -14% | -5% | -4% | -6%[10 µM]
O=C(NNc1c(Cl)cccc1Cl)c1ccno1 | -6%[9.22 µM] | nt | -12% | ? | nt | -4%[10 µM]
COc1ccc(OC)c(C2CC(=O)N3CN(c4ccc(C)c(Cl)c4)CSC3=C2C#N)c1 (stereo not given) | -10% | -5% | 9% | 13% | 12%[38.3 µM] | -7%

Not all compounds are listed (hit frequency here may not be typical).
